Mtb hypoxia rep: inhibitors of hypoxia-regulated fluorescent reporter in Mycobacterium tuberculosis; M. tuberculosis hypoxia-regulated fluorescent reporter, fluorescence; actives 0.1% (n = 300,000); fluorescence inhibition, % (test concentration not listed); AID 1159583;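 active means 35 to 45% if threefold the growth effect, above 45% if 1.5-fold the growth effect; inactive means the rest, general growth blockers included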;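 further: wells of about 50 µL received 100 nL stock; 0% = vehicle wells and 100% = reference inhibitor wells; whole bacteria with a GFP reporter of the hypoxia response; strong numbers were not always called active; many hits fall short of the cut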
Bead autofluor: compound fluorescence in toxin protease inhibitor counterscreen. actives 3.1% (n = 360,000). fluorescence intensity (no concentration beside the values). compound autofluorescence counterscreen, microsphere flow cytometry; stronger effect = higher value. AID 624483;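 active means at least 3 SD above the mean of all compounds, about 16000 in these data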;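 further: 100 nL of 1 mM stock went into each well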
BJeLR lethal: kills HRASV12-expressing BJeLR cells. AID 1554. BJeLR (HRASV12) viability, CellTiter-Glo ATP luminescence, 48 h; reference of the scale not given here. inhibition, % (no concentration beside the values). actives 0.17% (n = 300,000);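 active means replicate mean above 50%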;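 further: 50 nL library stock added to about 25 µL; numbers are from one replicate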
PrP 5UTR inh: inhibition of PrP 5' UTR reporter expression; cell-based PrP 5' UTR mRNA reporter, plate reader; inhibition, % (concentration not given with the values); actives 0.35% (n = 340,000);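 active means every replicate at 50% or more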;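 further: 0 = median of the neutral control wells; tested in H4 reporter cells; numbers are from one replicate; inactives centre near -14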
Sa RN4220 lethal: S. aureus RN4220 growth inhibition | OD600, 16 h | inhibition, % (concentration not given with the values) | actives 0.33% (n = 330,000);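 active means z-score of -3 or lower and OD600 up to 0.18 on both plates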;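 further: plate controls were untreated cells for no effect and reference antibiotic for full effect; stock transfer was 100 nL into about 80 µL; one replicate is shown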
ugtP null kill: growth inhibition of S. aureus ugtP deletion strain; S. aureus RN4220 ugtP deletion, OD600 growth, 16 h; some inactives read as strong as hits; growth inhibition, % (test concentration not listed); actives 0.54% (n = 330,000); AID 1259309;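 active means z-score under -3 and OD600 up to 0.15 on both plates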;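 further: plate controls were untreated wells for no effect and antibiotic for full effect; wells of about 80 µL received 100 nL stock; the first replicate is given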
Mtb hypoxia rep growth: recorded beside Mtb hypoxia rep, whose call it bears; growth inhibition, %; measured here: M. tuberculosis growth (absorbance);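 0% = vehicle and 100% = reference antibiotic; read after six days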
Numbers without * were called inactive; . = not tested or not shown.

no.	mol	Mtb hypoxia rep	Mtb hypoxia rep growth	Bead autofluor	BJeLR lethal	PrP 5UTR inh	Sa RN4220 lethal	ugtP null kill
1	CC(O)CCC(=O)NCCNC(=O)CCC(C)O (configuration not stated)	3	-1	4386	-5	-19	1.2	-2
2	O=C(NNC(=O)c1cc(-c2ccc(Cl)cc2Cl)nc2ccccc12)Nc1ccccc1	.	.	3047	9	-9	84	18
3	Cc1c(Br)c([N+](=O)[O-])nn1CC(=O)Nc1ccc2nc3n(c(=O)c2c1)CCCC3	-4	5	4142	-3	-11	2.1	-1
4	O=C1OC(N2C(=O)CC[C@H]2C(=O)Nc2ccc(F)c(F)c2)c2ccccc21 (some centres not stated)	.	.	5569	2	-2	4.0	9
5	COc1ccc(C(=O)C2CCCN(C(=O)Cn3cncn3)C2)cc1OC (configuration not stated)	.	.	5552	5	-26	.	.
6	Nn1c(-c2ccco2)n[nH]c1=S	-4	-16	8425	-6	-26	2.7	-1
7	c1cc2c3c(cccc3c1)-c1cnccc1-2	7	10	3875	.	-5	0.8	16
8	c1ccc2sc(N3CCOCC3)nc2c1	-12	4	10897	4	-29	-6.2	-7
9	Cc1cc(C)c(CSc2nnnn2-c2ccc(C(=O)O)cc2)c(C)c1	1	1	3871	-7	-4	7.9	14
10	O=C(NCC1CCCO1)C1C2C=CC3(CN(Cc4cccs4)C(=O)C13)O2 (configuration not stated)	4	4	10495	5	0	0.6	0
11	Cc1ccc(C2=NN(S(C)(=O)=O)C(c3ccc4nccnc4c3)C2)cc1 (configuration not stated)	2	8	3180	4	-32	6.2	4
12	CCC(C)[C@@H](N)C(=O)NN=Cc1ccc2ncccc2c1 (some centres not stated)	3	9	.	.	.	4.3	2
13	Cc1cc(=S)[nH]c2c(C)cccc12	-6	-4	3270	-6	-8	12	14
14	COc1ccccc1-c1cc(C(=O)Nc2sc3c(c2C#N)CCC(C)C3)c2ccccc2n1 (configuration not stated)	.	.	4209	7	-12	-0.9	-6
15	CCOC(=O)c1c(C)[nH]c(=S)c(C#N)c1-c1ccc(OC)cc1	12	10	3647	-2	-17	3.3	2

Twelve structures out of the list, ordered by count of non-hydrogen atoms, largest number first:
no.	mol	Mtb hypoxia rep	Mtb hypoxia rep growth	Bead autofluor	BJeLR lethal	PrP 5UTR inh	Sa RN4220 lethal	ugtP null kill
14	COc1ccccc1-c1cc(C(=O)Nc2sc3c(c2C#N)CCC(C)C3)c2ccccc2n1 (configuration not stated)	.	.	4209	7	-12	-0.9	-6
2	O=C(NNC(=O)c1cc(-c2ccc(Cl)cc2Cl)nc2ccccc12)Nc1ccccc1	.	.	3047	9	-9	84	18
3	Cc1c(Br)c([N+](=O)[O-])nn1CC(=O)Nc1ccc2nc3n(c(=O)c2c1)CCCC3	-4	5	4142	-3	-11	2.1	-1
4	O=C1OC(N2C(=O)CC[C@H]2C(=O)Nc2ccc(F)c(F)c2)c2ccccc21 (some centres not stated)	.	.	5569	2	-2	4.0	9
11	Cc1ccc(C2=NN(S(C)(=O)=O)C(c3ccc4nccnc4c3)C2)cc1 (configuration not stated)	2	8	3180	4	-32	6.2	4
9	Cc1cc(C)c(CSc2nnnn2-c2ccc(C(=O)O)cc2)c(C)c1	1	1	3871	-7	-4	7.9	14
15	CCOC(=O)c1c(C)[nH]c(=S)c(C#N)c1-c1ccc(OC)cc1	12	10	3647	-2	-17	3.3	2
12	CCC(C)[C@@H](N)C(=O)NN=Cc1ccc2ncccc2c1 (some centres not stated)	3	9	.	.	.	4.3	2
1	CC(O)CCC(=O)NCCNC(=O)CCC(C)O (configuration not stated)	3	-1	4386	-5	-19	1.2	-2
8	c1ccc2sc(N3CCOCC3)nc2c1	-12	4	10897	4	-29	-6.2	-7
13	Cc1cc(=S)[nH]c2c(C)cccc12	-6	-4	3270	-6	-8	12	14
6	Nn1c(-c2ccco2)n[nH]c1=S	-4	-16	8425	-6	-26	2.7	-1

The list continues:
no.	mol	Mtb hypoxia rep	Mtb hypoxia rep growth	Bead autofluor	BJeLR lethal	PrP 5UTR inh	Sa RN4220 lethal	ugtP null kill
16	CC(=O)N1CC23C=CC(CC2CC12CCCCCC2)O3 (configuration not stated)	-1	-4	4668	2	-23	5.0	3
17	NNC(=O)CN1C(c2ccccc2)=Nc2ccc(Br)cc2C1c1ccccc1 (configuration not stated)	11	16	4170	1	-25	2.9	7
18	CNC(=O)CC1C(=O)N(c2ccc(Cl)cc2)C(=S)N1CCc1ccc(OC)c(OC)c1 (configuration not stated)	15	11	3317	1	-19	10	7
19	Cc1ccc(C(=O)N2CCN(S(=O)(=O)c3ccccc3C#N)CC2)cc1S(=O)(=O)N1CCOCC1	2	1	2990	.	-21	3.6	6
20	COC(=O)c1c(NC(=O)Cc2cccs2)sc2c1CCCC2	.	.	2143	-9	-6	1.7	82
21	CCN1CCN(CCCNC(=O)c2cc3sccc3n2CC)CC1	3	12	5041	10	3	4.0	6
22	CCOC(=O)Cc1nc(-c2ccccc2)n[nH]1	0	1	4440	4	-31	-0.9	-3
23	COc1cccc(C(c2sc3nc(C)nn3c2O)N2CCC3(CC2)OCCO3)c1 (configuration not stated)	16	8	1944	-3	-1	4.0	-3
24	O=C(c1ccccc1SCc1ccc(F)cc1)N1CCOCC1	7	8	4111	-8	-21	3.9	3
25	COc1ccc(CNc2ncc(-c3ccc(F)cc3)n2C)c2ccccc12	-16	3	4021	1	-1	-3.6	-23
26	COc1cccc(N2C(=O)C3CC=C(Cl)CC3C2=O)c1 (configuration not stated)	1	14	10558	-5	3	4.0	-4
27	O=C(NNC(=S)NC1CCCCC1)c1ccccc1Br	1	4	6093	-10	-33	2.5	-3
28	O=C(Cc1c(O)c2ccccc2[nH]c1=O)NCc1ccc(F)cc1	.	.	4804	-11	-9	0.9	11
29	CC(=O)C1=CN(Cc2ccccc2)CCC1=O	-2	2	3642	.	-28	1.2	6
30	COc1ccc(/C=C2\SC(=O)N(CC(=O)Nc3ccc(F)cc3)C2=O)cc1O	1	-7	3644	-8	-14	5.7	17
31	Cc1ccc(S(=O)(=O)NN=C2C(=O)C3(C)CCC2C3(C)C)cc1 (configuration not stated)	2	5	.	.	.	6.2	-1
32	Cc1c(F)cccc1NC(=O)CCC(=O)O	.	.	3522	4	-14	2.6	10
33	Cc1ccccc1-c1cc(-c2ccccc2O)n[nH]1	0	7	4520	4	-137	2.4	-16
34	Cc1sc(NC(=O)C2CSC3(C)CCC(=O)N23)nc1-c1ccccc1 (configuration not stated)	0	2	4933	-19	-10	-0.3	3
35	O=C(NC12CC3CC(CC(C3)C1)C2)c1ccco1	.	.	4169	-5	-42	3.8	-3
36	CC(C)(C)C(=O)Nc1nnc(SCC(=O)NC2CCCCC2)s1	2	0	3925	-5	-12	-2.8	-5
37	Cc1cc(C)n(CC(=O)NNC(=O)COc2ccc(Cl)cc2Cl)n1	-1	2	.	.	-23	3.6	0
38	COc1ccc(NC2=NCCCS2)cc1OC	5	7	6018	0	-22	3.9	3
39	Cc1cc(C)nc(N(C#N)Cc2cccc([N+](=O)[O-])c2)n1	14	4	2693	2	-10	0.2	5
40	CCN1C(=O)C(O)(CC(=O)c2ccccn2)c2ccccc21 (configuration not stated)	12	11	8820	-1	-26	4.7	1
41	Cc1nc2ccccc2nc(C)c1=NOCc1cccc(F)c1	6	5	4114	-4	-23	9.7	10
42	O=C(COc1ccccc1)N1c2ccccc2Sc2ccccc21	15	14	7743	-3	-20	4.3	17
43	C=CCNC(=O)c1c(CSc2ccc(F)cc2)noc1C(=O)NCCC	.	.	3496	6	-14	.	.
44	COc1ccc2c(CC(=O)N3CCc4ccccc43)coc2c1	.	.	3068	5	-154	4.1	4
45	COc1ccc(S(=O)(=O)NC(N)=NCCc2ccc(OC)c(OC)c2)cc1	10	12	.	-2	.	1.8	3
46	Cc1[nH]c(C)c(S(=O)(=O)N2CCc3ccccc32)c1C(=O)N1CCCCC1	6	4	5023	8	-19	7.0	3
47	COc1cccc(C(=O)NCc2n[nH]c(=S)n2-c2cccc(C)c2)c1	0	2	8564	4	-7	7.1	10
48	CCOC(=O)C1CN(S(=O)(=O)c2ccc(OC)cc2)c2cc(CC(=O)OC)ccc2O1 (configuration not stated)	20	5	3444	1	-50	2.8	10
49	O=C(CN1C(=O)C(=O)N(Cc2ccccc2)C1=O)Nc1ccc(F)c(Cl)c1	-3	7	3408	4	-10	7.3	1
50	CCN(CC(=O)Nc1ccc(NC(C)=O)cc1)CC(=O)Nc1ccc(F)c(Cl)c1	8	8	4421	-5	-17	1.7	3
51	S=C(Nc1ccc(Cl)cc1)c1nc2ccccc2[nH]1	2	5	2345	-13	-67	99*	96*
52	O=C(NCc1ccccc1)/C(=C/c1ccco1)NC(=O)c1ccco1	8	-2	3852	.	-21	4.8	3
53	O=C1CC(c2ccc(Cl)cc2)n2nc(N3C(=O)c4ccccc4C3=O)nc2N1 (configuration not stated)	1	8	3268	12	-11	17	2
54	O=C(c1cc(Br)c[nH]1)N1CCCCC1	17	5	3584	-5	-9	4.0	2
55	O=C(c1ccccc1S(=O)(=O)NCc1ccccc1)N1CCCC1	.	.	4050	-1	-2	2.0	4
56	Cc1c(C(=O)N2CCc3ccccc3C2)oc2ccc(S(=O)(=O)N3CC(C)CC(C)C3)cc12 (configuration not stated)	15	1	2692	-5	-3	-2.2	-24
57	CCOCCCN(C)C1CCN(C(=O)c2oc3ccccc3c2NC(=O)COc2cccc(C)c2)CC1	5	8	5192	-8	2	0.5	-4
58	Cc1c(C(=O)N2CCN(c3ccc([N+](=O)[O-])cc3)CC2)oc2ccccc12	10	5	3848	.	-4	-1.8	-3
59	O=C(CCCCl)NC(=S)Nc1ccc(N2CCOCC2)cc1	22	23	.	1	-38	3.9	74
60	CCCCn1c(=S)[nH]c2ccccc2c1=O	3	1	2082	-11	-61	2.9	-7
61	COCC(=O)Nc1ccc([N+](=O)[O-])cc1OC	-5	9	2140	-10	-5	2.3	0
62	O=C(NCCO)c1cc([N+](=O)[O-])cc2c1C=Cc1ccccc1O2	6	4	3391	-12	-13	1.6	5
63	CCS(=O)(=O)c1ccc2c(c1)N(S(=O)(=O)c1ccc(C)cc1)CC(C(=O)O)O2 (configuration not stated)	7	7	4373	3	-23	-1.4	1
64	O=C1C2CC=C(Cl)CC2C(=O)N1CC1OCCc2ccccc21 (configuration not stated)	.	.	4782	6	-19	1.4	5
65	O=C(Nc1nc2ccccc2[nH]1)c1cccc(F)c1	-3	11	4787	4	-33	1.9	5
66	COc1cccc(NC(=O)CNC(=O)c2cccs2)c1	.	.	2503	-3	-27	6.8	0
67	CCc1ccc(N2CC(C(=O)NN=Cc3cc([N+](=O)[O-])ccc3O)CC2=O)cc1 (configuration not stated)	6	14	.	.	.	78	54

Assay outcomes: PubChem, several laboratories
